Screening results: PubChem, National Center for Advancing Translational Sciences (NCATS)
MARV entry inh: Marburg virus entry inhibition; Marburg virus pseudotyped entry inhibition, cell reporter; control for the full effect not named in the record; about a third of the inactives were read at about 46 µM; Potency, µM (titrated, usually from 37.8 µM), inactives show at the top dose activity change, negative = inhibition, actives largely listed as inhibitors; actives 1.8% (n = 300,000); AID 540276; active = well fitted inhibition curve with a large enough effect; inconclusive = small, poorly fitted or top-dose-only effect, or effect the other way; inactive = flat fitted curve, though single readings scatter; tested in HEK293 cells; about a fifth of its hits are not listed in these tables; further: on the % scale 0 is the no-effect control and ±100 the full control effect; luciferase read-out
LASV entry inh: inhibitors of Lassa virus binding or cell entry. Lassa virus pseudotype entry inhibition, cell reporter; control for the full effect not named in the record. Potency, µM (series often up to 37.9 µM), inactives show at the top dose activity change, negative = inhibition, hits mostly inhibitors. actives 1.2% (n = 300,000); active means well fitted inhibition curve with a large enough effect; inconclusive means small, poorly fitted or top-dose-only effect, or effect the other way; inactive means flat fitted curve, though single readings scatter; tested in HEK293 cells; further: on the % scale 0 is the no-effect control and ±100 the full control effect; nearly all actives have a fitted effect of over 50% in size; luciferase read-out
Cruzain Triton: cruzain (T. cruzi) inhibition with detergent; actives 0.43% (n = 200,000); P25779; AID 1478; Potency, µM, for inactives: max response, negative = inhibition, most hits filed as inhibitors; purified cruzain, Z-FR-AMC fluorescence, 0.01% Triton;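 further: plate controls were neutral wells for no effect and buffer without enzyme for full effect; nearly all actives have a fitted effect of over 40% in size; top concentration of the series not given in the record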
Target sequence (P25779 123-467 limits assumed): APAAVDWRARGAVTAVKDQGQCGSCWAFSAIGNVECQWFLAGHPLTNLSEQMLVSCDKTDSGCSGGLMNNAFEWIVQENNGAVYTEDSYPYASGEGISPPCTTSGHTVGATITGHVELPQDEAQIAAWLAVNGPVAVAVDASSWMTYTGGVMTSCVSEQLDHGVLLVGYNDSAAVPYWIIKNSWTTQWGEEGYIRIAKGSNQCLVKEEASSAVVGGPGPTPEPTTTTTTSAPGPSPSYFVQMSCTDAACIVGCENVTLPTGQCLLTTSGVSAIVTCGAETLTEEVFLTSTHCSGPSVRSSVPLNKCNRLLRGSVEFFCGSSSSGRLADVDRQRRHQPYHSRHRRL
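Detergent-containing run (0.01% Triton X-100) in acetate buffer pH 5.5 with 5 mM DTT: enzyme at 1.5 nM final, 15 min compound preincubation at room temperature, then 2 uM Z-FR-AMC substrate. Activity taken as 60 s fluorescence increase at 360/450 nm.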
RE007 growth inh: less growth of the S. pombe RE007 Vpr strain; S. pombe RE007 Vpr strain, BacTiter-Glo ATP luminescence, 24 h; control for the full effect not named in the record; Potency, µM (highest dose often 92.2 µM), for inactives: at the highest dose activity change, negative = less growth; actives 0.21% (n = 360,000); AID 651644; active = well fitted falling curve with a large enough effect; inconclusive = small, poorly fitted or top-dose-only effect; inactive = no such curve, though single readings can be large or run the other way;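 further: on the % scale 0 is the no-effect control and ±100 the full control effect; nearly all actives have a fitted effect of over 50% in size; the assay follows cell death caused by Vpr and the record does not say whether a fall means rescue or toxicity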
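Fission yeast strain RE007, carrying one chromosomally integrated HIV-1 vpr copy, was seeded at OD 0.01 in PMG+AL medium with 23 nL pinned compound. After 24 h at 30 °C and 99% humidity, viability was read by BacTiter-Glo luminescence.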
NS1 inh: influenza NS1 inhibition. S. cerevisiae slowed by influenza A NS1, growth recovery by OD600. Potency, µM (series often up to 46.1 µM), for the others: at the highest dose activity, positive = more growth. actives 0.4% (n = 270,000). AID 2326; active means well fitted rising curve with a large enough effect; inconclusive means small, poorly fitted or top-dose-only effect; inactive means no such curve, though single readings can be large or run the other way; further: nearly all actives have a fitted effect of over 50% in size
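OD600 was taken as the measure of yeast growth restored by compound in an NS1-expressing S. cerevisiae strain. Cells had been washed out of glucose medium and diluted 1:100 into galactose -URA medium, pH 6.0.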
Cruzain noTriton: blocks cruzain activity in detergent-free assay; Potency, µM, inactives show max response, negative = inhibition, most hits filed as inhibitors; P25779; AID 1476; actives 2.3% (n = 200,000); purified cruzain, Z-FR-AMC fluorescence, no detergent;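 further: plate controls were enzyme without inhibitor for no effect and buffer without enzyme for full effect; nearly all actives have a fitted effect of over 40% in size; top concentration of the series not given in the record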
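Purified cruzain at 1.5 nM, pre-incubated 15 min with compound at room temperature in 100 mM sodium acetate pH 5.5, 5 mM DTT, 0.00005% Triton X-100. Reaction started with 2 uM Z-FR-AMC; AMC fluorescence increase over 60 s gives rate.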
SARS PLP yeast: blocks SARS-CoV papain-like protease in a yeast assay; S. cerevisiae expressing SARS-CoV PLpro, growth rescue; control for the full effect not named in the record; Potency, µM (series often up to 32.9 µM), inactives show top-dose activity, positive = growth rescue; actives 0.19% (n = 330,000); active means well fitted rising curve with a large enough effect; inconclusive means small, poorly fitted or top-dose-only effect; inactive means no such curve, though single readings can be large or run the other way; further: 0% is about no effect; nearly all actives have a fitted effect of over 55% in size; growth read by luminescence after 48 h
StopGo reporter: lowers the luciferase signal of an FMDV 2A StopGo reporter. human cells with a luciferase reporter of 2A StopGo recoding; control for the full effect not named in the record. Potency, µM (highest dose often 57.9 µM), for the others: at the top dose signal change, negative = less light. actives 1.2% (n = 410,000); active = well fitted falling curve with a large enough effect; inconclusive = small, poorly fitted or top-dose-only effect; inactive = no such curve, though single readings can be large or run the other way; tested in HEK293T cells; further: on the % scale 0 is the no-effect control and ±100 the full control effect; nearly all actives have a fitted effect of over 45% in size; luciferase light after 4 h
Starred values were filed as active, the others as inactive; ? = inconclusive; / = no result given; & = joins results of further samples; [ ] = remark or other dose. Unless noted, the call rests on the fitted dose curve; in most records, active means well fitted curve in the direction sought with a large enough effect; inconclusive means small, poorly fitted or top-dose-only effect, or another doubt; inactive means no such curve, though single readings can be large; an effect the other way counts as inactive or inconclusive. Potency means the concentration at half of the fitted maximal effect.

SMILES	MARV entry inh	LASV entry inh	Cruzain Triton	RE007 growth inh	NS1 inh	Cruzain noTriton	SARS PLP yeast	StopGo reporter
Cc1ccc(NC(=O)N2CCN3CCCCC3C2)cc1F (stereo not given)	/	?	2.5%	/	/	27%	/	11%
CCOC(=O)C1=NNC(=O)C1	?	1%	/	-6%	/	/	/	-16%
CCn1c(O)c(/C=C2\C=NN=C2c2ccc(C)cc2)sc1=S	1%[46.1 µM]	3%	-5.0%	-10%	14%	13µM*	13%	-7%
COc1cc(S(=O)(=O)Nc2cccc(C)c2)ccc1NC(=O)c1ccncc1	?	-7%	-3.0%	2%	4%	6%	-1%	38%[activator]
N#Cc1c(N2CCCC2)nsc1-c1ccccc1	/	/	/	-15%	-12%	/	-2%	41%[activator]
CCN(CC)CCNC(=O)CCc1c(C)nc2c(c(C)nn2-c2ccc(C)cc2)c1C	/	/	/	3%	2%	/	1%	-16%
O=C(COC(=O)/C=C/c1cccc([N+](=O)[O-])c1)Nc1cccnc1Cl	-1%	-2%	/	3%	/	/	0%	-2%
O=[N+]([O-])c1ccc(S(=O)(=O)Nc2nnc(C3CCCCC3)s2)cc1	-4%[46.1 µM]	-2%[46.1 µM]	/	-4%	-35%	/	-4%	20%
O=C1c2ccccc2C(=O)C1c1ccc2ccccc2n1	?	5.8µM*	2.0%&-0.4%	-13%	-12%[9.22 µM]	-5%&20%	-7%	?
Cc1nc(NS(=O)(=O)c2ccccc2)sc1C(=O)NNS(=O)(=O)c1ccccc1	18%[46.1 µM]	14%[46.1 µM]	/	24%	18%	/	1%	15%
CCN(c1ccccc1)S(=O)(=O)c1ccc(Cl)c(NC(=O)COC(=O)c2cccc(OC)c2O)c1	-22%	-4%	-3.8%	-20%	21%	?	0%	-16%
S=C(NCc1ccc2c(c1)OCO2)NCc1ccc2c(c1)OCO2	10%	0%	-3.4%	45%	9%	-6%	8%	9%
O=C(O)c1ccc(C(=O)c2cc([N+](=O)[O-])cc([N+](=O)[O-])c2)cc1	-10%[46.1 µM]	12%[46.1 µM]	/	-3%	/	/	/	0%
O=C(CCCCCn1c(=O)[nH]c2ccsc2c1=O)N1CCCCC1	26%[46.1 µM]	6%	-3.0%	13%	-9%	-4%	-4%	0%
COc1ccc(OC)cc1	/	/	4.2%	-7%	/	4%	4%	-23%
CS(=O)(=O)N1CCC(Oc2ccccc2C(=O)NC(C2CC2)C2CC2)CC1	17%[46.1 µM]	9%	/	-7%	-1%	/	1%	39%[activator]
COc1ccc(N(C(C)C(=O)N/N=C/c2cc(Br)c(C)o2)S(C)(=O)=O)cc1 (stereo not given)	/	/	/	3%	0%	/	1%	-22%
O=C(Nc1cc(S(=O)(=O)N2CCOCC2)ccc1N1CCOCC1)c1cc2c(s1)CCC2	-13%[46.1 µM]	?	/	-12%	5%	/	0%	-12%
CCCn1nnnc1NCc1ccccc1F	?	17%[46.1 µM]	/	9%	-8%	/	-6%	9%
O=C(Cn1c2ccccc2c2nc3n(c(=O)c21)CCS3)Nc1ccccc1	/	/	/	4%	10%	/	2%	-14%
Cc1ccccc1NC(=O)CN1C(=O)N/C(=C\c2ccccc2OCc2ccc(C(=O)O)cc2)C1=O	0%[46.1 µM]	?	/	9%	3%	/	0%	5%
CCC(c1nnnn1Cc1ccc(F)cc1)N1CCN(C2CCCCC2)CC1 (stereo not given)	13µM*	?	-0.5%	-2%	-8%	7%	2%	?
CCN(CC)c1nc(C)c(C(=S)Nc2cc([N+](=O)[O-])ccc2Cl)s1	-3%[46.1 µM]	12%	/	0%	/	/	1%	8%
O=C(NCCN1CCOCC1)/C(=C\c1ccc(Br)cc1)NC(=O)c1cccs1	-10%	-1%	-6.9%	-15%	-7%	-5%	6%	-3%

A second format for some results above:
> O=C(Cn1c2ccccc2c2nc3n(c(=O)c21)CCS3)Nc1ccccc1
  MARV entry inh = /	LASV entry inh = /	Cruzain Triton = /	RE007 growth inh = 4%	NS1 inh = 10%	Cruzain noTriton = /	SARS PLP yeast = 2%	StopGo reporter = -14%
> O=C(O)c1ccc(C(=O)c2cc([N+](=O)[O-])cc([N+](=O)[O-])c2)cc1
  MARV entry inh = -10%[46.1 µM]	LASV entry inh = 12%[46.1 µM]	Cruzain Triton = /	RE007 growth inh = -3%	NS1 inh = /	Cruzain noTriton = /	SARS PLP yeast = /	StopGo reporter = 0%

(list continues)
SMILES	MARV entry inh	LASV entry inh	Cruzain Triton	RE007 growth inh	NS1 inh	Cruzain noTriton	SARS PLP yeast	StopGo reporter
S=C(NCCc1c[nH]c2ccccc12)NC1CCCC1	-10%[46.1 µM]	5%[46.1 µM]	/	-8%	7%	/	0%	22%
COc1ccc(Cl)cc1N(C(=O)c1ccco1)C(C(=O)NC1CCCC1)c1ccco1 (stereo not given)	?	-20%	/	5%	16%	/	-6%	-1%
c1cn2cc(CSC3CCCCC3)nc2s1	?	4%	-0.7%	-22%	-89%	-4%	-8%	28%
CS(=O)(=O)c1ccccc1C(=O)Nc1cc(Cl)ccc1-n1cncn1	2%	-12%	/	-14%	/	/	2%	-10%
Cc1ccc([N+](=O)[O-])cc1S(=O)(=O)N1CCCN(C)CC1	2%[46.1 µM]	17%[46.1 µM]	/	-26%	-4%	/	0%	2%
Cc1n[nH]c(=S)n1Cc1ccccc1	/	/	/	3%	0%	/	-4%	-7%
O=C(CN1C(=O)c2ccccc2C1=O)Nc1cccc(Cl)c1	-6%[46.1 µM]	3%[46.1 µM]	/	2%	-5%	/	-9%	-13%
Cc1ccc(S(=O)(=O)N2CCN(C(=O)COC(=O)CSc3ccc(C)c(C)c3)CC2)c(C)c1	19%[46.1 µM]	11%	/	12%	/	/	0%	6%
CC(C)c1ccc(C2Sc3ccccc3NC3=C2C(=O)c2ccccc23)cc1 (stereo not given)	?	18%[46.1 µM]	-3.9%	/	/	10µM*	/	7.9µM*
O=C1c2cnc3nc(SCc4cccc(Cl)c4)nn3c2CC2c3ccccc3CCN12 (stereo not given)	-16%	-20%	-2.9%	-3%	6%	-21%	-1%	-5%
CCc1ccc(NC(=O)CSC2=Nc3ccccc3C3=NC(CCC(=O)NCc4ccccc4OC)C(=O)N23)cc1 (stereo not given)	/	14%[46.1 µM]	-1.4%	/	/	12%	/	-25%
S=C1NC[C@H](Cc2ccccc2)N1CCc1cccc2ccccc12	/	/	/	-13%	1%	/	0%	-7%
Cc1nc2ccccc2c(=O)n1-c1ccc(Cl)cc1Cl	21%	-10%	/	87%	-23%	/	0%	-27%
CCCCN=C1NN=C(c2cc3ccccc3o2)CS1	5%[46.1 µM]	14%	-9.4%	-2%	-18%	7.9µM*	9%	44%[activator]
CCc1ccc(-n2c(=O)c3c4c(sc3n(CC(=O)N3CCCCC3CC)c2=O)CCC4)cc1 (stereo not given)	?	0%[46.1 µM]	-4.2%	/	/	-7%	/	?
O=C1c2ccccc2NC(c2cccc(O)c2)N1O (stereo not given)	/	/	/	-10%	1%	/	1%	10%
CCN1CCN(S(=O)(=O)c2ccc(Cl)c(C(=O)NC3CCCCC3)c2)CC1	-13%	6%	/	-22%	/	/	4%	-15%
O=C(Nc1ccccc1C(F)(F)F)c1cc(-c2ccco2)on1	1%[46.1 µM]	-17%[46.1 µM]	/	-20%	1%	/	-2%	0%
CCN1C(=O)c2ccccc2Sc2ccc(NC(C)=O)cc21	/	-15%[46.1 µM]	0.4%	/	/	7%	/	-10%
O=C(Nc1ccc(Cl)cc1)Nc1nc(-c2ccccc2O)cs1	/	/	/	-9%	8%	/	-1%	?
Cc1ccc(-c2nc(C#N)c(NCc3ccco3)o2)cc1	8%	5%	-3.7%	-2%	-1%	-20%	-6%	48%[activator]
COc1ccc(-c2nc(Cn3c(SCc4cccc(F)c4)nc4ccncc43)c(C)o2)cc1OC	-4%	/	-6.9%	-2%	-80%	4%	1%	-20%
O=C(Nc1ccccn1)NC1CCCCC1	?	12%	8.3%	13%	-10%	8%	-6%	28%
c1ccc(-c2nc(CSc3n[nH]c(-c4cccs4)n3)cs2)cc1	-5%	-1%	-8.2%	-26%	-47%	-6%	-26%	9%
O=C(COc1ccccc1Cl)NCCCNC(=O)c1cccnc1	7%[46.1 µM]	0%[46.1 µM]	/	2%	1%	/	-4%	-1%
CC(c1ccccc1C(O)(c1ccccc1)c1ccccc1)N(C)C (stereo not given)	-7%	-17%	0.0%	2%	-12%	-4%	3%	-14%
CCOc1ccc(-c2noc(COC)n2)cc1OC	-1%	20%	-0.9%	-7%	-2%	-17%	-3%	19%
CC(C)CC1=NC(C(F)(F)F)(C(F)(F)F)c2c(n(CC(C)C)c(=O)[nH]c2=O)N1	?	16%	0.7%	-4%	0%	4%	15%	0%
N#Cc1ccc(N/N=C/c2ccccc2)c([N+](=O)[O-])c1	-12%	15%	/	-10%	/	/	-1%	-18%
CN(C)S(=O)(=O)c1cccc(NC(=O)c2cc(-c3cccs3)nn2-c2ccccc2)c1	-25%	?	3.1%	/	?	?	4%	-18%
COc1ccc(NC(=O)c2ccc(CNc3c(NC4CCCCC4)c(=O)c3=O)cc2)cc1OC	?	-2%	-4.7%	-2%&-8%	22%	5%	2%	-4%&23%
Cn1cnnc1SCC(=O)Nc1ccccc1C(=O)NC1CCCC1	20%	-2%	4.0%	13%	-1%	-7%	3%	/
CN(C)c1cc[n+](CC(=O)Nc2ccc(Oc3ccccc3)cc2)cc1	9.2µM*	?	/	-10%	/	/	-7%	-17%
Cc1ccc(S(=O)(=O)N(CC(=O)N2CCC(C(N)=O)CC2)Cc2ccc(F)cc2)cc1	25%	13%	-11%	2%	0%	?	-5%	/
CCn1c(SCC(=O)Nc2ccc(C(C)=O)cc2)nc2ccccc21	?	5%	-6.9%	4%	11%	-22%	-1%	26%
